# PMP22 txn prim – PMP22 gene transcription modulation; S16 Pmp22-F2sN Schwann cells (luciferase reporters placed in the Pmp22 gene), FLuc/NLuc coincidence luminescence, 24 h; hit rate 2% among 43,000; Potency, µM (top dose mostly 57.5 µM), for inactives: top-dose activity change, negative = inhibition, actives largely listed as inhibitors; active = clear falling dose curves in both reporters; inconclusive = both reporters move, but less clearly or upward; inactive = either reporter flat; the % is the NLuc reporter signal; further: on the % scale 0 is the no-effect control and ±100 the full control effect; some results filed as inactive show a strong effect at the top dose
#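 Luminescent read-out of sequential FLuc and NLuc signals from a reporter embedded in the Pmp22 3' UTR of S16 Schwann cells, taken after 24 h compound exposure at 37C; compounds reducing both signals score as inhibitors of expression.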
# HTT promoter inh – inhibits huntingtin promoter activity | Potency, µM (highest dose often 57.5 µM), for inactives: top-dose activity change, negative = inhibition, hits mostly inhibitors | HEK293 HTT promoter firefly luciferase reporter (activity 0% = vehicle and -100% = no light), 24 h | hit rate 0.93% among 48,000; active means well fitted inhibition curve with a large enough effect; inconclusive means small, poorly fitted or top-dose-only effect; inactive means no such curve, though single readings can be large or run the other way; further: nearly all actives have a fitted effect of over 50% in size
#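 HEK293 cells carrying firefly luciferase reporters were seeded at 2,500 per well in Opti-MEM and cultured for 24 h. They were then treated with compounds at up to 57.5 uM final for 24 h at 37 degrees C before Dual-Glo luminescence readout.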
# * = called active by the depositor; ? = inconclusive; . = no result given; & = joins results of further samples; [ ] = dose if it differs, or a comment. Potency means the concentration at half of the fitted maximal effect.
# Values in the order: HTT promoter inh, PMP22 txn prim
1	CCOc1ccc(C(=O)/C=C/c2cn(CC(O)CN3CCc4ccccc43)c3ccccc23)cc1 (centres undefined)
  ?, ?
2	Nc1ccn(C[C@@H](CO)OCP(=O)(O)O)c(=O)n1
  1%[25.2 µM], .
3	Cn1nnnc1SCCNCc1ccc(Cl)c(Cl)c1
  0%, -32%
4	COc1ccc(CNC(=O)C(C)n2nc(C)c3sc4ccccc4c3c2=O)cc1OC (centres undefined)
  -13%, -2%
5	CCN1CCN(C(=O)c2cnn(-c3ccc(F)cc3)c2-n2cccc2)CC1
  -27%, -1%
6	COc1ccc(CCNC(=O)Cn2c(-c3cccs3)cc3cc(F)ccc32)cc1OC
  ?, ?
7	CCOC(=O)c1ccc(CN(Cc2ccc(C)cc2)S(=O)(=O)c2ccc(NC(C)=O)cc2)cc1
  ?, ?
8	O=S(=O)(c1ccccc1)c1nnn2c1nc(NCc1ccc(F)cc1)c1sccc12
  8%, 9%
9	O=C(NCc1ccc(Cl)cc1)c1cnc2sc(N3CCCC3)nn2c1=O
  5%, -4%
10	O=C(CCC1N=C2c3ccccc3N=C(SCc3ccc(Cl)cc3)N2C1=O)NCCc1ccccc1 (centres undefined)
  -26%, ?
11	O=C(NCc1ccc2c(c1)CCN2C(=O)c1ccncc1)c1ccc(Cl)cc1
  -22%, -14%
12	NC(=O)N/N=C/c1ccc([N+](=O)[O-])o1
  6%, .
13	Cc1ccc(-c2cc(C(F)(F)F)n3ncc(-c4ccccc4)c3n2)cc1
  -4%, -12%
14	COc1ccc(C(=O)Nc2nc(-c3nnn(-c4ccc(C(C)C)cc4)c3C)ns2)cc1
  -26%, ?
15	CCOC(=O)c1c(NC(=O)CCCOc2ccc(C)cc2)sc2c1CCC(C)C2 (centres undefined)
  -4%, 1%
16	Cc1ccc(-c2cn3c(n2)sc2cc(C(=O)NCCCc4ccccc4)ccc23)c(C)c1
  -20%, -1%
17	CN(C)CCNC(=O)C1CCN(c2ncnc3c2nc2n3CCCCC2)CC1
  -15%, -16%
18	COc1ccccc1CNC(=O)CN1C(=O)CSc2ccc(S(=O)(=O)N(C)C)cc21
  -8%, -2%
19	CCOc1ccc(/C=C/c2nc3ccccc3n2S(=O)(=O)c2ccc(Br)cc2)cc1
  29%, -1%
20	CCCCS(=O)(=O)c1oc(-c2ccc(F)cc2)nc1S(=O)(=O)c1ccccc1
  ?, 2.4µM*
21	Cc1ccc(-c2nn(CCC(=O)Nc3ccc(OC(F)(F)F)cc3)c(=O)c3ccccc23)cc1
  0%, -26%
22	CCOc1ccc(-n2c(=O)c3c(C)c(C)sc3n(Cc3cc(=O)n4cc(Cl)ccc4n3)c2=O)cc1
  -22%, 43%
23	Cc1ccc(C(=O)N/C(=C\c2ccc(Cl)cc2)C(=O)NC2CCCCC2)cc1
  -8%, ?
24	O=c1c(S(=O)(=O)c2ccccc2)cn(Cc2ccc(F)cc2)c2cc(N3CCOCC3)c(F)cc12
  -11%, 0%
25	C#CC(C)(CC)NC(=O)c1cnn2c(C(F)F)cc(-c3ccccc3OC)nc12 (centres undefined)
  4%, -19%
26	CC(=O)c1ccc(N2CCN(S(=O)(=O)c3ccc4[nH]c5c(c4c3)CCCCC5)CC2)cc1
  ?, -56%
27	CCCS(=O)(=O)c1nc(S(=O)(=O)c2ccc(C)cc2)c(NCc2ccccc2Cl)s1
  -23%, -15%
28	COc1cccc(C2C(C(=O)Nc3ccc(Cl)cc3)=C(C)Nc3nc4ccccc4n32)c1OC (centres undefined)
  -21%, ?
29	Nc1c(-c2nc(-c3ccccc3)cs2)c2ccccn2c1C(=O)c1ccc2c(c1)OCO2
  -10%, ?
30	Cc1ccc(CNC(=O)Cn2c(=O)n(-c3ccc(C)c(F)c3)c(=O)c3sc4ccccc4c32)cc1
  -14%, -29%
31	Cc1ccc2oc(-c3cccc(NC(=O)c4ccc(N5CCC(C)CC5)c([N+](=O)[O-])c4)c3)nc2c1
  -25%, 8%
32	CCOC(=O)Cn1cccc1-c1nc(-c2ccc(OC)cc2)c(-c2ccc(OC)cc2)s1
  -7%, .
33	CCCS(=O)(=O)Nc1cccc(-c2cn3ccsc3n2)c1
  10%, -62%
34	CC(=O)Nc1ccc(S(=O)(=O)Nc2ccc([N+](=O)[O-])cc2)cc1
  -1%, .
35	CCOc1ccc(CCNC(=O)c2cc3n(n2)CCCN(Cc2ccc(C)cc2)C3=O)cc1OCC
  ?, ?
36	Cc1ccc(-c2n[nH]c3c2C(c2cccs2)N(c2ccc(Cl)cc2)C3=O)cc1 (centres undefined)
  ?, ?
37	CCCn1c(=O)c2[nH]c(C34CC5CC3C[C@@H](C5)C4)nc2n(CCC)c1=O
  4%, .
38	CCc1ccccc1NC(=O)N1CCN(Cc2nc3ccc(C)cc3o2)CC1
  ?, -34%
39	Cc1ccc(-n2c(=O)[nH]c3cc(C(=O)NCCc4ccccc4)ccc3c2=O)cc1
  ?, -20%
40	COCCN(CCOC)C(=O)c1cc2c(=O)n3ccccc3nc2n1C
  -7%, -6%
41	COc1ccc(C(=O)Nc2cc(-c3nc4ncccc4o3)ccc2C)cc1Br
  4%, ?
42	CN(CCCNC(=O)c1cc2c(Cl)nc3ccccc3c2s1)Cc1ccccc1
  -9%, ?
43	Cc1c(C(=O)Nc2cccc(C(F)(F)F)c2)sc2nc[nH]c(=O)c12
  -10%, ?
44	CC(CNC(=O)CN1C(=O)COc2ccc(S(=O)(=O)N3CCCCCC3)cc21)c1ccccc1 (centres undefined)
  -24%, 13%
45	COc1ccccc1C(=O)Oc1c(Sc2ccccc2)c(C)nn1C(C)(C)C
  ?, 14%
46	CCOc1ccc(-c2cc(CCCC(=O)NCCc3cc(OC)c(OC)c(OC)c3)no2)cc1
  16µM*, ?
47	COCCCn1c(SCc2ccccc2F)nc2c(sc3ccccc32)c1=O
  -10%, ?
48	Cc1ccc(Cl)cc1NC(=O)c1ccc(NC(=O)N2CCSc3ncccc32)cc1
  ?, 12%
49	COc1cccc(N2CCN(C(=O)C3CCCN(S(=O)(=O)c4ccc(Br)s4)C3)CC2)c1 (centres undefined)
  ?, ?
50	CCc1cccc(NC(=O)Nc2cn(C)c(=O)c3ccccc23)c1
  ?, -12%

# One compound at a time (already shown).
# `CN(CCCNC(=O)c1cc2c(Cl)nc3ccccc3c2s1)Cc1ccccc1` is entered as HTT promoter inh = -9%; PMP22 txn prim = ?
# `Cc1ccc(Cl)cc1NC(=O)c1ccc(NC(=O)N2CCSc3ncccc32)cc1` is entered as HTT promoter inh = ?; PMP22 txn prim = 12%

# Reformatted: entries from further up.
44. CC(CNC(=O)CN1C(=O)COc2ccc(S(=O)(=O)N3CCCCCC3)cc21)c1ccccc1 (centres undefined)
- HTT promoter inh = -24%
- PMP22 txn prim = 13%
48. Cc1ccc(Cl)cc1NC(=O)c1ccc(NC(=O)N2CCSc3ncccc32)cc1
- HTT promoter inh = ?
- PMP22 txn prim = 12%
49. COc1cccc(N2CCN(C(=O)C3CCCN(S(=O)(=O)c4ccc(Br)s4)C3)CC2)c1 (centres undefined)
- HTT promoter inh = ?
- PMP22 txn prim = ?

# (further entries)
# Values in the order: HTT promoter inh, PMP22 txn prim
51	Cc1cc(OCCOCC[N+](C)(C)Cc2ccccc2)ccc1C(C)(C)CC(C)(C)C
  ?, .
52	O=C1CN(C(=O)COc2ccc(Cl)cc2Cl)C(c2ccccc2)c2cc(F)ccc2N1 (centres undefined)
  ?, ?
53	O=C(C1CCN(S(=O)(=O)c2ccc(Br)s2)CC1)N1CCN(c2ccccc2)CC1
  -13%, ?
54	O=C1CN(C(=O)c2ccc(S(=O)(=O)N3CCCCC3)cc2)C(c2ccc(F)cc2)c2cc(F)ccc2N1 (centres undefined)
  ?, ?
55	CCOC(=O)c1[nH]c(C)c(CCC(=O)Nc2c(C)cc(C)cc2C)c1C
  ?, -4%
56	COc1ccc(CCNc2ncnc3c2c(-c2ccccc2)cn3-c2cccc(Cl)c2)cc1OC
  ?, ?
57	COC(=O)c1cc(S(=O)(=O)NCC2CCN(Cc3ccc(C)cc3)CC2)cn1C
  -15%, -12%
58	O=C(Nc1ccc2nn(-c3ccc(Cl)cc3)nc2c1)c1cc2ccccc2o1
  -20%, ?
59	CCOC(=O)c1c(C)oc2nc(C)nc(NCc3ccc(Cl)cc3)c12
  12%, 5%
60	COc1cccc(C(=O)NCC(c2ccc(N(C)C)cc2)N2CCCC2)c1OC (centres undefined)
  6%, -23%
61	COC(=O)c1ccccc1NC(=O)Cn1c(=O)n(CCC(=O)NCc2ccc3c(c2)OCO3)c(=O)c2ccccc21
  5%, ?
62	O=C(Nc1nnc(S(=O)(=O)N2CCCCC2)s1)c1ccc(F)cc1
  -9%, 5%
63	Cc1ccc2c(c1)c(CC(=O)Nc1ccc(C)c(F)c1)c(C(=O)O)n2C
  ?, 10%
64	CCC1CN(C(=O)NCc2ccccc2)c2cc(C)ccc2O1 (centres undefined)
  -13%, 2%
65	O=C(NCCc1ccc(Cl)cc1)c1ccc2c(c1)N(Cc1ccccc1)C(=O)CS2
  ?, ?
66	Cc1cc(Br)ccc1NC(=O)CCS(=O)(=O)c1cccc2nsnc12
  -20%, -24%
67	CC(=O)N1CCC2(CC1)OC(=O)C(C)=C2C(=O)Nc1cc(C)ccc1C
  -1%, -13%
68	CN(C)c1ccc(C(=O)NCc2ccc3c(c2)CCN3C(=O)c2ccc(Cl)cc2)cc1
  -8%, 3%
69	O=C(Cc1ccccc1)NCCc1csc2nc(-c3ccc(Cl)cc3)nn12
  ?, -14%
70	COc1ccc(CNC(=O)c2ccc3c(c2)N=C(C)c2c(C)ccc(C)c2S3)cc1
  ?, ?
71	O=C(Cc1ccccc1)Nc1c(C(=O)N2CCN(c3ccc(F)cc3)CC2)oc2ccccc12
  ?, 16%
72	Cc1ccc(Cl)cc1NC(=O)C1CCCN(c2cnccn2)C1 (centres undefined)
  10%, 0%
73	COc1ccc(CNC(=O)c2cc3cccc4c3n2CC(C)S4)cc1 (centres undefined)
  -21%, -3%
74	COc1ccc(S(=O)(=O)N(CC(=O)Nc2ccc(Br)cc2)Cc2ccccc2)cc1
  -27%, -14%
75	CCOC(=O)c1c(C)[nH]c(C)c1S(=O)(=O)N1CCCC(C(=O)N2CCN(c3ccc(Cl)cc3)CC2)C1 (centres undefined)
  -29%, ?
76	O=C(NCCc1ccccc1)c1ccc2c(c1)N(Cc1c(F)cccc1Cl)C(=O)CS2
  ?, -44%
77	CCOC(=O)Cc1ccc(NC(=O)N2CCC(CN3CCC(C)CC3)CC2)cc1
  -17%, 0%
78	O=C(O)c1ccc(-n2c(/C=C\c3ccc(O)cc3)nc3ccccc3c2=O)cc1
  -15%, 18%
79	COc1ccc(-c2cc3nc(C)c(CCC(=O)NC(C)c4ccccc4)c(C)n3n2)c(OC)c1 (centres undefined)
  ?, -22%
80	COc1ccc(-c2nc3c(c(SC)n2)Cc2c(CO)cnc(C)c2O3)cc1
  -15%, -18%
81	Cc1ccc(-c2onc(C)c2C)cc1S(=O)(=O)N1CCCCC1
  ?, ?
82	Cc1cc(Br)ccc1NC(=O)Cn1cnc2sc(C)c(S(=O)(=O)N3CCN(C)CC3)c2c1=O
  7%, -12%
83	COc1cccc(CNC(=O)CCn2c(=O)c3cccn3c3cccnc32)c1
  5%, -12%
84	CCOC(=O)c1scc(-c2ccc(C)cc2)c1S(=O)(=O)Nc1cc(C)ccc1C
  ?, 2%
85	COc1cc(NCc2ccc3nc(N)nc(N)c3c2C)cc(OC)c1OC
  -25%&-26%, .
86	Cc1nn(CC(=O)N2CCN(c3cccc(Cl)c3)CC2)c(=O)c2c1sc1ccccc12
  -9%, -5%
87	COc1ccc(OC)c(CCNC(=O)c2cnn(-c3ccc(C)cc3C)c2C2CCN(C(=O)OC(C)(C)C)CC2)c1
  ?, ?
88	CCOC(=O)C1=C(CS(=O)(=O)c2ccc(C)cc2)NC(=O)NC1c1ccc(C(C)C)cc1 (centres undefined)
  ?, ?
89	CCCCOc1ccc(C(=O)Nc2cccc(-c3nc4cccnc4s3)c2)cc1
  -9%, ?
90	CCC(=O)N1c2ccccc2CC1C(=O)NCCc1ccc(OC)c(OC)c1 (centres undefined)
  -13%, 7%
91	O=C(Nc1ccccc1)c1cccc2c(=O)c3c([nH]c12)CCCC3
  -12%, -7%
92	Cc1nn(C(=O)c2ccc(Br)cc2)c(C)c1S(=O)(=O)N1CCOCC1
  -13%, -24%
93	O=c1c2sc3ccccc3c2n(Cc2cccc(C(F)(F)F)c2)c(=O)n1Cc1ccc(F)cc1
  -11%, ?
94	COc1ccccc1C(=O)Nc1nnc(SCc2cc(=O)n3ccc(C)cc3n2)s1
  26%, -11%
95	CC(=O)Nc1c(C)nn(-c2ccccc2)c1N1CCC(C(=O)Nc2cccc(C(F)(F)F)c2)CC1
  -24%, -15%
96	Cc1ccc2c(=O)c(C(=O)c3cccc(Cl)c3)cn(CC(=O)NCc3ccccc3)c2n1
  -4%, -13%
97	CC(=O)c1ccc(N2CCN(c3nc4c(S(=O)(=O)c5ccc(C)c(C)c5)nnn4c4ccc(Cl)cc34)CC2)cc1
  -16%, -1%
98	COc1cccc(NS(=O)(=O)c2ccc3c(c2)[C@H]2C=CC[C@H]2[C@@H](c2ccccc2Cl)N3)c1
  ?, -34%
99	CCc1cccc(C)c1NC(=O)c1cc2ccccc2o1
  ?, -37%
100	CCCCN(C)C(=O)c1ccc2c(c1)N(Cc1ccc(F)cc1)C(=O)c1ccccc1S2(=O)=O
  -26%, ?

# Screens deposited in PubChem by National Center for Advancing Translational Sciences (NCATS).
